Mtb growth: M. tuberculosis H37Rv growth inhibitors, H37Rv strain (AID 1626) | M. tuberculosis H37Rv growth inhibition; higher % means a stronger effect | inhibition, % at 10 µM; hits with a dose series show IC50 in µM | actives 0.95% (n = 220,000);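 active means confirmed in a dose series; inconclusive means inhibition above 80% but not taken into the dose series; inactive means below 80% or under 30% at every dose of the series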;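 further: bacteria incubated seven days before Alamar blue readout; 0% = bacteria only wells and 100% = bacteria with antibiotic wells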
YopH PTP inh: blocks Yersinia enterocolitica YopH tyrosine phosphatase | fluorescence Ex485/Em525 | inhibition, %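 (about 10 µM by stock and volumes)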 | actives 0.16% (n = 140,000);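 active means inhibition of 50% or more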;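 further: controls were vehicle for no effect and minimum signal wells for full effect; inactives centre near -20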
Mtb bLac sens: beta-lactam sensitization of Mtb H37Rv | M. tuberculosis H37Rv growth with meropenem, percent inhibition; hits of this screen are not shown here | inhibition, % at 25 µM | actives 0.27% (n = 330,000);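 active means about 74% or more and at least 40 points above the plate without the antibiotic, then above 30% in a dose series; inconclusive means first-round hits that could not be retested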;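 further: growth measured after seven days incubation then overnight dye step; 0% = bacteria only wells and 100% = bacteria with antibiotic; twin plates without the antibiotic show which effects depend on it; some results filed as inactive read as strong as hits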
RecA intein inh: Mtb RecA intein splicing inhibition; inhibition, %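 (about 9 µM by stock and volumes)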; actives 0.75% (n = 290,000); P9WHJ3; cell-free RecA intein splicing, fluorescence; AID 2221; in the data active means inhibition above about 30%; inconclusive means no clear call, values can overlap the other calls;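 further: 0% = vehicle wells and 100% = reference inhibitor control wells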
Target sequence (P9WHJ3 whole entry, looked up): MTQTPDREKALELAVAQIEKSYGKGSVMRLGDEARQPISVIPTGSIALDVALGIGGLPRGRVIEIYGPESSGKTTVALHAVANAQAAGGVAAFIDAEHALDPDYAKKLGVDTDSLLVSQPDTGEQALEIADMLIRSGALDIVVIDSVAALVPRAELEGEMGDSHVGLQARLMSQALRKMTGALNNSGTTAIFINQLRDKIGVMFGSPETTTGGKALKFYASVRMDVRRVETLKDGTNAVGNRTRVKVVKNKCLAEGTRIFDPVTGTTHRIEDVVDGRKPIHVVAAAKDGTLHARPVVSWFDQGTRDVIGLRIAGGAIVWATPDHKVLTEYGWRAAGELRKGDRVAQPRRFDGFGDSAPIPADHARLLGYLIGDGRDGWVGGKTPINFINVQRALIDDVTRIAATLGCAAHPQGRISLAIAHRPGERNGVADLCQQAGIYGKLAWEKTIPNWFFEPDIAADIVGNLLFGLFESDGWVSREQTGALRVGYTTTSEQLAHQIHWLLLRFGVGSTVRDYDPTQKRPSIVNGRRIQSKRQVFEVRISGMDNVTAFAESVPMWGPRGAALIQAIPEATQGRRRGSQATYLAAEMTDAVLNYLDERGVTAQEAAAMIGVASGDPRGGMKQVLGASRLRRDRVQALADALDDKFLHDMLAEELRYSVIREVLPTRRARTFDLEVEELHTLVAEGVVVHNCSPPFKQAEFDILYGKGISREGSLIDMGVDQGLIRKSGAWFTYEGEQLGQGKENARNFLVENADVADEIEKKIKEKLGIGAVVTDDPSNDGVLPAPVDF
Arbovirus inh: blocks arbovirus infection; arbovirus infection cell-based antiviral screen; actives 0.37% (n = 200,000); inhibition, % at 10 µM;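 active means inhibition from about 30%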;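 further: bluetongue infection of BSR cells; cell survival read as ATP light after 72 h; 0% = infected wells without compound and 100% = uninfected wells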
Arbovirus inh repeat: also measured in Arbovirus inh; calls as there; inhibition, %; measured here: 10K subset replicate screen; many hits read low in the repeat;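 first of two repeat runs on a subset; 0% = infected and 100% = uninfected wells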
* marks the source's active call; other numbers are inactive results; ? = inconclusive; / = not tested or not shown. An excerpt; count on the stated rates, not on these rows.

SMILES	Mtb growth	YopH PTP inh	Mtb bLac sens	RecA intein inh	Arbovirus inh	others
CCn1c(SCC(=O)c2ccc(O)c(O)c2)nnc1-c1ccccc1OC	-3.9%	-33.1	-1.5	0.6	-5.4
CC(C)CCn1c(SCC#N)nc2c(sc3ccccc32)c1=O	1.0%	-151.1	6.8	-3.9	-7.3
CCS(=O)(=O)N1CCC(C(=O)N2CCN(c3ccccc3)CC2)CC1	-8.0%	-42.3	3.6	-3.3	0.2
O=C(CCCc1c[nH]c2ccccc12)N[C@@H](Cc1c[nH]c2ccccc12)C(=O)O	/	/	-1.7	-0.4	/
COc1cccc2cc(C(=O)c3ccccc3)oc12	3.7%	/	-1.1	2.5	-3.7
Cc1ccc(C(CCN)c2ccco2)cc1 (configuration not stated)	/	-40.5	1.5	6.2	6.2
C/C(=N\NC(=O)Cc1ccc(Br)cc1)c1cccnc1	/	/	-2.7	-0.6	/
Cc1nccc2[nH]c(=O)c(C(=O)NCCCN(C)C3CCCCC3)cc12	-8.3%	-35.0	/	/	6.4
Cc1cc(S(=O)(=O)N2CCOCC2)ccc1OCC(=O)N1CCOCC1	/	/	-3.6	-1.5	/
CCOc1ccc(N(CC(=O)NC2CCCC2)C(=O)CCCC(=O)Nc2ccccn2)cc1	5.8%	-15.6	3.3	-1.9	-6.4
O=C(Nc1ccc2c(c1)nc1n2CCOC1)C1CCCCC1	-5.2%	-0.4	-3.5	-2.6	0.6
CCOC(=O)N1CCN(C(=O)CCC(=O)c2ccc(OCC)cc2)CC1	/	/	5.7	-0.6	/
CC(C)CNc1nc(N)c([N+](=O)[O-])c(NCC2CCCO2)n1 (configuration not stated)	4.1%	-8.4	2.5	0.0	-0.1
CCN(CC)C(=O)COc1ccc(C=O)cc1OC	-0.9%	-34.8	3.5	-1.3	2.7
CC1CN(C(=O)c2cnn3c(C(F)F)cc(-c4ccccc4)nc23)CC(C)O1 (configuration not stated)	0.0%	-13.8	-8.5	-1.1	-1.7
COc1ccccc1NC(=S)N1CCc2cc(OC)c(OC)cc2C1	-3.4%	-36.7	-3.9	-3.9	-5.0
CCN(CC)S(=O)(=O)c1ccc(NC(=O)c2ccccn2)cc1	0.2%	-17.8	-11.8	-3.8	2.7
CC(C)(C)NC(=O)C1Cc2ccccc2CN1S(=O)(=O)c1ccc(F)cc1 (configuration not stated)	4.5%	/	-6.8	-0.6	2.4
CC1CCc2c(sc(NC(=O)Cn3nc(C(=O)O)c4ccccc4c3=O)c2C#N)C1 (configuration not stated)	-0.7%	/	18.6	5.7	/
C=CCOC(=O)C1CC=CCC1C(=O)Oc1ccc(F)cc1F (configuration not stated)	2.7%	-10.1	?	0.6	9.1	Arbovirus inh repeat=5.0
CC(C)(CO)NC(=O)CC1C(=O)NCCN1Cc1ccc(-c2ccccc2)cc1 (configuration not stated)	1.2%	/	-4.8	1.0	-9.9
Cc1cc(/C=N/NC(N)=O)c(C)n1C1CCCCC1	3.4%	/	1.3	6.7	8.1
CCC1CCCCN1S(=O)(=O)c1ccc2c(c1)CCN2C(C)=O (configuration not stated)	/	/	6.5	0.0	/
CC1(NC(=O)COc2ccccc2-c2ccccc2)CCS(=O)(=O)C1 (configuration not stated)	-1.2%	-17.8	-0.6	0.0	10.0
CN1CCN(S(=O)(=O)c2cnccc2N2CCN(c3cccc(Cl)c3)CC2)CC1	3.8%	-16.7	5.2	4.3	-1.0
CC(=O)c1cccc(NC(=O)CSc2ncc(C(=O)Nc3ccccc3)c(=O)n2C)c1	/	/	-4.0	37.5*	/
COc1ccc(/C=C/C(=O)NCCn2c(C)cc3ccccc32)cc1OC	10.2%	-32.7	-4.0	2.4	9.9
CCC(=O)c1cc2c(cc1NC(=O)c1ccccc1)OCCO2	-2.7%	-22.5	5.4	0.1	-0.7
CCOC(=O)N1CCC(=C(C#N)C(=O)Nc2cc(OC)ccc2OC)CC1	-7.0%	-45.8	-1.2	0.6	-4.1
COc1ccc(C(=O)Nc2nc3nccc(-c4ccccc4)n3n2)cc1	4.3%	-7.7	-3.1	-0.9	-7.5
Cc1ccc2nc(NC(=O)COC(=O)c3ccco3)sc2c1	-2.5%	-5.1	-1.0	-2.5	8.0
CCOC(=O)C1CCN(C(=O)CCS(=O)(=O)c2ccc3c(c2)n(C)c(=O)c(=O)n3C)CC1	/	/	-4.9	0.1	/
Cn1cc(S(=O)(=O)N2CCOCC2)cc1C(=O)Nc1cccc(Cl)c1	/	/	-4.2	-0.3	/
CC(=O)N1c2ccc(S(=O)(=O)N3CCC(C(=O)NCc4ccccc4)CC3)cc2CC1C (configuration not stated)	/	/	-4.8	0.7	/
COc1ccc(-n2c(C)cc(C(=O)CN3CCCCC3)c2C)cc1	-10.9%	/	-4.2	-0.9	3.1
CCCC(=O)Nc1ccc2c(c1)nc(CCN1CCCCC1)n2C	-10.2%	/	-13.0	2.4	/
COc1ccc(S(=O)(=O)NC(N)=NCCc2ccc(OC)c(OC)c2)cc1C	8.7%	/	-0.8	-2.4	5.5
COc1cc(OC)c2c(c1)S(=O)(=O)C(c1ccccc1)=C2N	1.2%	/	1.4	1.0	0.0
Cc1ccc(NCc2nnc(SCC(=O)c3ccccc3)n2Cc2ccco2)c(C)c1	1.6%	-26.1	-6.0	11.8	14.2
COC(=O)CCc1c(C)c(C(=O)c2ccc(F)cc2)c2ccccn12	7.9%	/	-5.0	4.0	5.6

Quoted at random: three records from the list.
SMILES	Mtb growth	YopH PTP inh	Mtb bLac sens	RecA intein inh	Arbovirus inh	others
Cn1cc(S(=O)(=O)N2CCOCC2)cc1C(=O)Nc1cccc(Cl)c1	/	/	-4.2	-0.3	/
CCCC(=O)Nc1ccc2c(c1)nc(CCN1CCCCC1)n2C	-10.2%	/	-13.0	2.4	/
CC(=O)N1c2ccc(S(=O)(=O)N3CCC(C(=O)NCc4ccccc4)CC3)cc2CC1C (configuration not stated)	/	/	-4.8	0.7	/

Further structures:
SMILES	Mtb growth	YopH PTP inh	Mtb bLac sens	RecA intein inh	Arbovirus inh	others
Cc1cc(NC(=O)CCC(=O)N(CC(=O)NCC2CCCO2)c2ccccc2)no1 (configuration not stated)	/	/	-1.9	-0.6	/
COC(=O)c1ccc(NC(=O)N2CCC(O)(c3cccnc3)CC2)cc1	/	19.7	0.3	-3.8	2.1
C/C=C/c1cc(OC)c2c(c1)[C@H](C)[C@@H](c1ccc(O)c(OC)c1)O2	1.3%	/	6.2	-1.2	/
O=C(Cn1cc2c(n1)CCCCC2)N1CCc2ccccc2C1	-1.6%	-19.4	0.5	1.4	0.0	Arbovirus inh repeat=0.5
CCOC(=O)CN1CC23C=CC(O2)C(C(=O)N2CCN(c4ccc(F)cc4)CC2)C3C1=O (configuration not stated)	0.0%	-33.5	2.3	1.9	1.1	Arbovirus inh repeat=-2.5
Cc1nc2ccc(NS(=O)(=O)c3c(C)c(C)cc(C)c3C)cc2s1	-14.4%	-5.0	4.0	/	-24.5
CCOc1c2ccc(C(=O)NC3CCCc4ccccc43)cc2nn1C (configuration not stated)	0.6%	-1.6	3.4	0.4	6.0
Cc1cc(C)c(NC(=O)C2CCCN2C(=O)NC2CCCCC2)c(C)c1 (configuration not stated)	-13.6%	5.4	-4.8	/	0.3
CN(Cc1ccco1)S(=O)(=O)c1ccc2c(c1)CCN2C(=O)CCC(=O)O	-10.8%	-32.2	-0.8	2.4	3.1
CCOc1ccc2c(c1)OC1(CCC(C)C1)CC2=O (configuration not stated)	1.1%	/	-5.7	0.1	/
CCOC(=O)CSc1nc2sc3c(c2c(=O)n1-c1ccc(C)cc1)CCN(C)C3	/	/	50.4	18.2	/
Cc1ccccc1NC(=S)NC(C)C(c1ccccc1)N1CCN(C)CC1 (configuration not stated)	1.2%	/	-13.4	-4.8	9.1
C=CCn1c(CNC(=O)c2cccs2)n[nH]c1=S	-4.4%	-20.5	-0.7	-0.2	-8.3
Cc1cccc(C)c1NC1=NC(=S)N(c2ccccc2)C12CCOC(C)(C)C2 (configuration not stated)	4.0%	9.3	-21.7	-1.1	-4.5
CC(=O)c1ccccc1NS(=O)(=O)c1cccc2nonc12	/	/	-14.6	1.1	/
Cc1ccc(S(=O)(=O)C(CNC(=O)C(C)C)c2cccs2)cc1 (configuration not stated)	/	/	-6.6	-0.8	/
Cc1sc(N)c(C(=O)c2ccccc2Cl)c1C	13.2%	/	-5.0	-0.1	-4.8
COc1cccc(Cn2cc(-c3cccc(C(F)(F)F)c3)nn2)c1	/	/	1.3	4.7	/
C=CCNC(=O)COC(=O)c1oc2ccccc2c1CSC1CCCCC1	-9.7%	-37.4	4.7	-4.7	8.7
Cc1cccc2c1N(CCCOc1ccc(C(C)(C)C)cc1)C(=O)C2=O	?	-4.9	98.7	1.3	-40.7
O=P(COCCOCCOCCOCP(=O)(c1ccccc1)c1ccccc1)(c1ccccc1)c1ccccc1	3.1%	/	2.7	/	-1.4
O=C(CN(C1CC1)S(=O)(=O)c1ccc(S(=O)(=O)N2CCCCCC2)cc1)Nc1ccccc1	6.9%	-0.3	5.4	/	-12.0
CCOC(=O)c1ccc(NC(=O)Oc2cc(C)c(Cl)cc2C(C)C)cc1	11.4µM*	/	93.1	0.9	/
COc1ccc(-c2noc(CCC(=O)O)n2)cc1	-12.7%	-27.4	3.1	-4.8	-0.3
Cc1ccccc1C(=O)NC(=S)Nc1ccc(N2CCN(C(=O)c3ccccc3)CC2)cc1	/	/	-0.4	-2.7	/
O=C(C1CCN(S(=O)(=O)c2cccnc2)CC1)N1CCN(c2cccc(Cl)c2)CC1	0.1%	-15.9	-9.7	0.2	7.9
Cc1noc(C)c1COc1ccc(C(=O)OCC(N)=O)cc1	7.2%	/	5.3	1.3	2.8
CC(C)c1ccc2nc(NC(=O)C3CC3)sc2c1	/	/	11.3	-2.8	/
Cc1cccc(Nc2nc3ccccc3n3nnnc23)c1	-5.4%	/	9.2	-2.2	-10.3
Cc1c(O)ccc2c(=O)c(-c3nncn3-c3ccccc3)coc12	0.0%	/	0.0	-0.8	0.6
Cc1ccc(C(=O)NNC(=O)c2cccc(C)c2)cc1	-10.0%	/	-2.4	0.6	4.4
Cc1cc(NC(=O)COC(=O)CCS(=O)(=O)c2ccc(C)c(C)c2)no1	/	/	1.9	1.5	/
CCOC(=O)c1nc2ccccc2nc1C	6.9%	-12.6	-10.9	-1.2	-0.9
CCC/C(=N\NC(=O)c1ccco1)c1ccc(Cl)s1	/	/	-3.3	0.1	/
CC(C#N)Sc1ncnc2sc(-c3ccccc3)cc12 (configuration not stated)	/	/	-1.9	-0.2	/
CC1CCCCN1C(=O)Cn1c(=O)n(CCC(=O)NCc2ccco2)c(=O)c2sccc21 (configuration not stated)	-3.2%	-24.8	-4.0	-1.3	-0.9
Cc1cccc(NC(=O)C2(c3ccc([N+](=O)[O-])cc3)CCCC2)c1	0.5%	-23.9	5.1	7.5	9.3
Cc1ccc(NC(=O)Nc2cccc(C(F)(F)F)c2)nc1	2.4%	/	-2.8	-1.5	3.3
N#CC1(C#N)COC23CCCCC2C1(C#N)C(=N)O3 (configuration not stated)	3.0%	18.0	-12.9	-184.0	2.8
COc1ccccc1NC(=O)CSc1nc(O)c(Cc2ccccc2)c(=O)[nH]1	-1.4%	-17.5	3.6	1.4	4.8
COc1cccc(OC)c1C(=O)N1CCN(c2ccccn2)CC1	-5.3%	2.0	-2.9	-1.7	11.2
CC(C)CCNC(=O)c1ccc(CS(=O)(=O)Cc2ccccc2F)o1	5.3%	/	-1.0	-2.5	0.8
CCCOC(=O)NC(CC)COC(=O)Nc1cc(C)ccc1C (configuration not stated)	-12.8%	-40.6	-4.4	-2.0	-0.9
Cc1cc(NC(=O)c2ccco2)c(=O)n(Cc2c(F)cccc2Cl)c1	/	/	3.2	8.9	/
CS(=O)(=O)Nc1ccc(C2=NN(C(=O)c3ccco3)C(c3ccccc3)C2)cc1 (configuration not stated)	0.8%	-10.2	2.8	3.6	7.0
O=C(c1cccc(Oc2ccc([N+](=O)[O-])cc2Cl)c1)N1CCOCC1	/	/	-7.3	-0.8	/
Cc1cc(OCCOc2cccc3cccnc23)c(C)cc1Cl	1.1%	-26.3	-0.9	2.4	7.7
O=C(c1cccc(S(=O)(=O)NCc2ccccc2)c1)N1CCCC1	-0.1%	/	-12.0	-0.5	7.5
COc1ccc(N=Cc2c(O)n(Cc3cccs3)c(=O)[nH]c2=O)cc1	?	/	32.7	-74.7	-16.6
CCOC(=O)c1c(C)oc2ccc(NS(=O)(=O)c3ccc4c5c(cccc35)C(=O)N4)cc12	8.1%	23.7	91.6	-3.6	1.7
CCOC(=O)c1c(NC(=O)CN(CC)CC)sc2c1CCC2	1.6%	10.1	7.1	6.7	-6.2
CSc1cccc(NC(=O)Cc2ccccc2[N+](=O)[O-])c1	-0.4%	/	1.2	1.6	-2.8
O=C(CNCCc1ccccc1)N1CCc2ccccc2C1	-6.2%	/	5.9	4.6	3.0
